# Bioassay records as filed in PubChem.
# UCH37 DUB inh: blocks the human deubiquitinase UCH37. inhibition, % (test concentration not listed). hit rate 0.33% among 330,000. purified proteasome/UCH37, Ub-AMC cleavage fluorescence;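 active means mean of two replicates above 20%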;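 further: 0% = compound-free wells with enzyme and 100% = wells lacking proteasome; stock transfer was 100 nL into about 20 µL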
# Target sequence (Q9Y5K5 whole entry, looked up): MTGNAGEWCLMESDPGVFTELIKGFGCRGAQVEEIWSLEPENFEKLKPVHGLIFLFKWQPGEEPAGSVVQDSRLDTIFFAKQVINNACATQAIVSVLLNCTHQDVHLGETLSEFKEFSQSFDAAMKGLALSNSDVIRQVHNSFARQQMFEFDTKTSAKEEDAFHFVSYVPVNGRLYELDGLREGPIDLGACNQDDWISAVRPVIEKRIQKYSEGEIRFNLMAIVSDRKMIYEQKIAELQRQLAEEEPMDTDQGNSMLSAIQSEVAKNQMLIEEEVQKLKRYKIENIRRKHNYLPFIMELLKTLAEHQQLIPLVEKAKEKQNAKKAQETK
#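 Material: Human UCH37 enzyme supplied as purified proteasome complex | Schedule: 30 min preincubation with enzyme, 25 min cleavage at room temperature | Detection: AMC fluorescence 355/460 nm | Measure: % inhibition of Ub-AMC cleavage fluorescence | Controls: Wells without proteasome as full block, compound-free enzyme plus substrate as uninhibited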
# T cruzi inh: T. cruzi replication inhibition | T. cruzi beta-gal in NIH3T3, luminescence, 90 h | inhibition, % (test concentration not listed) | hit rate 1.4% among 300,000;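 active means mean inhibition across valid replicates above about 55%, limit read from the data; inconclusive means mean below that limit but half or more replicates reach it; inactive means mean below it, under half of replicates reach it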;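 further: signal also drops with host cell toxicity which is not excluded here; 0% = plate median of DMSO wells and 100% = zero luminescence signal; higher percent means less beta-gal luminescence so fewer parasites; stock transfer was 50 nL into about 50 µL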
# RanGTP-Impb inh: inhibitors of RanGTP-importin-beta interaction, primary screen, biochemical, FRET, CFP-Ran, YFP-importin-beta, homogeneous; cell-free CFP-Ran/YFP-importin-beta FRET ratio; inhibition, % (no concentration beside the values); hit rate 1.1% among 300,000;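 active means most replicates above 15%; inconclusive means exactly half above 15%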;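 further: 0% = DMSO wells and 100% = Ran loaded with GDP instead of GTP; wells of about 40 µL received 100 nL stock; the first replicate is given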
# LANA-H2B inh: blocks KSHV LANA binding to histone H2A/H2B. Q9QR71. cell-free LANA-H2A/H2B peptide, fluorescence polarization. inhibition, % (test concentration not listed). hit rate 0.6% among 320,000. AID 2629; in the data active means inhibition mostly above about 10%, no sharp cut-off; inactive means mostly below about 6.7%;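 further: stock transfer was 7.5 nL into about 10 µL; 0% = median of vehicle wells and 100% = median of positive control wells; one replicate is shown; the record names a cut of 25% in any replicate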
# A1 inh: inhibitors of the anti-apoptotic protein A1, read as caspase activation. MEF A1-2A-BIM cells, Caspase-Glo 3/7 luminescence, 3 h; percent of clofoctol response, vehicle zero. caspase activation, % (concentration not given with the values). hit rate 0.066% among 330,000. AID 2462;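 active means over half of replicate activation scores above 10%, or exactly half above 10 with the replicate mean above 10; inconclusive means replicate mean below 10 yet half the replicates above 10; inactive means over half of replicates below 10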;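 further: wells of about 30 µL received 50 nL stock; many hits fall short of the cut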
# Beta cell apopt: beta cell apoptosis inhibition. INS-1E cytokine-induced death, ATP luminescence, 48 h; percent of positive-control rescue, neutral wells zero. hit rate 0.8% among 300,000. protection from apoptosis, % (concentration not given with the values);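 active means all replicates at 75% or more, or half of them and the mean; inconclusive means half reach 75% but not the mean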;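 further: 0% = cytokine-treated negative control wells and 100% = positive control rescue; higher means more ATP so stronger rescue from cytokine killing; wells of about 40 µL received 100 nL stock; the first replicate is given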
# Beta2AR agonist: agonists of human beta-2 adrenergic receptor inducing internalization; P07550; response, % (test concentration not listed); Am2.2-beta2AR cells, FAP receptor internalization, flow cytometry; reference of the scale not given here; hit rate 0.43% among 340,000; AID 504454;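 active means response above a set limit, near 3 SD of response in nonfluorescent compounds, cut at about 42% in these data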;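 further: stock transfer was 100 nL into about 11 µL; a reference agonist was the positive control; negative values mostly stem from fluorescent compounds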
# Target sequence (P07550 whole entry, looked up): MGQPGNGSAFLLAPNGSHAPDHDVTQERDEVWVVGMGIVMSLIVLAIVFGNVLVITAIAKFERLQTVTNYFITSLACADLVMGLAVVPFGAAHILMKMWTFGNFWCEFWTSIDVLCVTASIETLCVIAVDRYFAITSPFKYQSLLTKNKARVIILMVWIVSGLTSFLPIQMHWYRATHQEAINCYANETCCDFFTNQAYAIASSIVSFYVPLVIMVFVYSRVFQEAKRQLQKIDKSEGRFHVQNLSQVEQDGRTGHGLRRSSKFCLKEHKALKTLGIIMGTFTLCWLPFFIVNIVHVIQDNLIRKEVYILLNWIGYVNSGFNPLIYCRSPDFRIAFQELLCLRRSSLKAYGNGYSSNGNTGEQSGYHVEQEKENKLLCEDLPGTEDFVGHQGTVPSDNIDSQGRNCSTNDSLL
# Calb FLC: C. albicans growth modulation with fluconazole. AID 1979. hit rate 0.57% among 300,000. C. albicans CaCi-2 (fluconazole-resistant clinical isolate) + fluconazole, Alamar Blue growth, 48 h. growth inhibition, % (test concentration not listed);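 active means most replicates above 75%; inconclusive means exactly half above 75%; inactive means most below 75%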;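 further: all wells also contain fluconazole at 8 µg/ml as a sub-toxic cotreatment; 0% = median of DMSO wells and 100% = median of geldanamycin control wells; wells of about 8 µL received 7.5 nL stock; the first replicate is given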
# Numbers without * were called inactive; i = inactive; u = inconclusive; x = not tested or not shown.
SMILES,UCH37 DUB inh,T cruzi inh,RanGTP-Impb inh,LANA-H2B inh,A1 inh,Beta cell apopt,Beta2AR agonist,Calb FLC
CCOc1ccc(C(=O)NC(C)C2COc3ccccc3O2)cc1 (stereo unspecified),3.7,6.5,u,35.7*,0.2,-4.2,-0.2,-4.4
CC(=O)c1ccc(NC(=O)c2cc(-c3cccs3)on2)cc1,3.8,2.9,6.2,7.9,-1.0,-1.0,12.2,3.2
COc1ccc(N2CCN(C(=O)CSc3nnc(NC(=O)C4CCC4)s3)CC2)cc1,5.4,-14.3,-0.5,-0.6,0.2,-14.1,-0.6,-6.5
CC(C)OCCCN1C(=O)c2[nH]nc(-c3ccccc3O)c2C1c1cccc(Cl)c1 (stereo unspecified),1.8,5.6,3.2,-1.9,0.3,11.6,-4.3,73.5
Cn1c2ccccc2c2nn(-c3ccccc3)c(=O)cc21,0.8,-25.3,1.0,-2.0,0.0,-1.3,-16.2,13.9
Cc1ccccc1NC(=O)CSc1n[nH]c(-c2ccccn2)n1,-0.2,-40.2,u,-1.7,1.4,7.8,-2.9,0.0
CC(c1ccccc1)N1CCN(C(=O)CCl)CC1 (stereo unspecified),2.4,0.6,-1.5,-1.3,0.7,4.8,6.5,-13.8
O=C(c1ccco1)N1CCN(C(c2ccccc2)c2nnnn2C2CCCC2)CC1 (stereo unspecified),-1.7,10.8,2.1,0.3,-0.4,-9.0,-7.5,-31.0
Cc1ccc(N2CC(C(=O)N3CCN(Cc4ccc5c(c4)OCO5)CC3)CC2=O)cc1 (stereo unspecified),2.5,9.0,-1.8,52.2*,0.5,0.7,-2.9,1.1
CCOC(=O)c1cc2c(C)n(-c3ccc(OCC)cc3)c(C)c2ccc1=O,7.0,22.1,-4.0,-1.8,1.6,3.9,-1.0,19.4
CCOC(=O)c1c(NC(=O)CSc2nnc(-c3c[nH]c4ccccc34)n2C)sc2c1CCCC2,2.5,35.1,25.9*,4.2,0.9,16.8,20.8,-6.8
CN1CCN(Cc2c(C#N)c3ccccc3n2C)CC1,4.4,21.3,2.4,1.0,-0.2,-0.6,3.7,-2.0
COc1ccc(C2C(C(C)=O)=C(O)C(=O)N2c2ccc(Br)cn2)cc1 (stereo unspecified),9.0,-13.4,5.8,-1.1,-1.1,-0.5,-0.7,-4.4
O=C(COc1coc(CN2CCN(c3ccc(F)cc3)CC2)cc1=O)Nc1ccccc1,3.5,6.3,2.5,3.6,0.4,x,-10.2,1.8
COc1ccc(S(=O)(=O)Nc2ccccc2C(=O)OC2CCCN(C)C2)cc1OC (stereo unspecified),4.4,2.5,3.5,-3.6,2.8,-7.5,1.7,-2.6
Cc1ccc2c(c1)N(C(=O)CCC(=O)NCc1ccccc1)CC(C)O2 (stereo unspecified),5.0,-0.4,-4.6,-0.6,-0.2,-6.7,-6.8,-21.7
COc1ccccc1Nc1nnc(SCC(=O)c2c(N)n(C3CC3)c(=O)[nH]c2=O)s1,3.3,x,x,1.2,1.9,3.2,1.4,x
COC(=O)[C@@]12CCCN1[C@H](c1ccc(-c3ccccc3)cc1)[C@H]1C(=O)N(C)C(=O)[C@H]12,2.9,-9.0,1.2,4.1,0.9,-3.2,-1.0,13.4
O=C(NCc1nnc(SCC(=O)N2CCCCCC2)o1)c1ccco1,5.5,-0.3,2.2,2.4,0.7,1.4,3.2,1.7
CN=c1scc(-c2ccc(Cl)cc2)n1C,1.4,5.7,-2.1,1.4,-0.2,-5.0,-2.2,-24.1

# Arranged by count of non-hydrogen atoms (lowest first): part of the list above
SMILES,UCH37 DUB inh,T cruzi inh,RanGTP-Impb inh,LANA-H2B inh,A1 inh,Beta cell apopt,Beta2AR agonist,Calb FLC
CN1CCN(Cc2c(C#N)c3ccccc3n2C)CC1,4.4,21.3,2.4,1.0,-0.2,-0.6,3.7,-2.0
COc1ccc(S(=O)(=O)Nc2ccccc2C(=O)OC2CCCN(C)C2)cc1OC (stereo unspecified),4.4,2.5,3.5,-3.6,2.8,-7.5,1.7,-2.6
O=C(COc1coc(CN2CCN(c3ccc(F)cc3)CC2)cc1=O)Nc1ccccc1,3.5,6.3,2.5,3.6,0.4,x,-10.2,1.8

# (listing goes on)
SMILES,UCH37 DUB inh,T cruzi inh,RanGTP-Impb inh,LANA-H2B inh,A1 inh,Beta cell apopt,Beta2AR agonist,Calb FLC
NC(=O)c1ccccc1NC(=O)Nc1cccc(Cl)c1Cl,x,-26.6,0.8,-1.0,-0.3,9.2,-2.2,6.3
COc1ccccc1NC(=O)COC(=O)Cn1cnc2c1c(=O)n(C)c(=O)n2C,5.3,x,x,0.4,-0.4,-6.1,-8.2,x
S=c1[nH]ccn1Cc1ccccc1,2.2,-12.1,4.7,-6.5,0.5,-2.5,2.2,-34.6
O=C(OCCCCN1C(=O)c2ccccc2C1=O)c1n[nH]c2ccccc12,3.1,11.3,-4.0,-2.3,0.1,-3.3,-7.5,-4.3
O=C(NCc1ccccn1)C12CC3CC(CC(C3)C1)C2,4.0,3.0,5.7,2.2,-0.3,-2.4,8.7,-17.2
COc1ccc(CCC(=O)Nc2ncc(C)s2)cc1,4.4,-12.9,0.8,-3.7,1.6,-2.2,-0.7,-0.6
CC1=NN(c2ccccc2)C(=O)C1N=Nc1cccc(O)c1 (stereo unspecified),4.8,5.5,-4.0,-4.9,0.3,-4.2,8.5,34.1
COc1ccccc1/C=C/C(=O)N1CCN(S(=O)(=O)c2cccs2)CC1,-9.2,x,x,3.6,-0.5,5.6,-4.5,x
O=C1OC(C(=O)Nc2ccccc2)Cc2ccccc21 (stereo unspecified),3.0,x,x,0.3,-0.4,-2.5,1.1,-18.8
Cn1c(SCCN2CCOCC2)nc2sc3c(c2c1=O)CCCC3,0.6,0.2,-3.5,1.6,-0.3,-4.2,4.5,u
CCn1nc(C(=O)Nc2ccccc2C)c(Cl)c1Cl,2.6,2.1,-1.5,-1.2,1.0,2.4,-9.7,11.6
COc1cc2c(cc1OC)CN(Cc1ccc(C)s1)CC2,0.1,-9.6,-2.2,-1.0,-0.2,-4.6,-4.2,-9.0
O=C1c2oc3ccc(Br)cc3c(=O)c2C(c2cccc(F)c2)N1CCO (stereo unspecified),2.5,-6.1,0.9,-0.7,-0.9,-1.4,-16.4,15.2
CCCC(=O)N1CCN(c2ccc(NC(=O)c3cccs3)cc2Cl)CC1,0.6,7.2,0.6,2.2,-0.6,-1.4,6.8,u
Nc1ccc2nn(-c3ccc(F)cc3)nc2c1,i,-6.7,-2.3,1.7,-5.8,x,2.2,49.4
CCOc1c(Br)cc(C(=O)NCCCn2ccnc2)cc1OC,3.5,-2.8,-3.7,-2.5,0.0,-0.1,-3.5,9.4
CC(=O)c1cccc(NC(=S)NC(=O)c2cccc(C)c2)c1,4.5,13.3,-2.2,7.9,-0.9,-4.3,-3.6,24.5
Cc1nc2sc(C#N)c(N)c2c2c1CCCC2,-84.1,2.4,2.8,-8.2,-1.3,5.3,-3.8,11.0
Cc1nc2c(-c3ccccc3)c(C)nn2c(C)c1CCC(=O)N1CCOCC1,3.1,-2.8,6.9,-2.4,-0.6,-1.2,1.1,7.9
COc1cccc(C(=O)COc2ccc(NC(=O)c3ccccc3)cc2)c1,3.4,6.7,1.3,x,x,x,3.6,0.8
Cc1ccc(CCNS(=O)(=O)c2ccc(C)cc2)cc1,2.8,-27.5,1.1,5.4,-2.0,-3.4,-3.1,-9.5
CCn1nc(NS(=O)(=O)c2ccccc2)c2cc3cccc(C)c3nc21,-22.5,-4.8,2.6,3.3,-0.1,-7.1,5.0,72.8
S=C(Nc1ccc2[nH]ccc2c1)NC1CCCCC1,2.5,28.8,-9.2,0.5,-0.6,-5.9,8.4,-7.8
COc1ccc(CCN(C)CCCC(C#N)(c2cc(OC)c(OC)c(OC)c2)C(C)C)cc1OC (stereo unspecified),-0.7,u,-4.5,-18.3,-0.8,2.8,-0.9,x
N#C/C(=C\c1ccc(-c2nc3ccccc3s2)o1)C(N)=O,-5.6,-12.5,-11.4,-6.1,-3.2,-9.4,18.6,1.5
O=C(CSc1nnc(NC(=O)c2c(F)cccc2F)s1)NC1CC1,4.1,-8.2,4.2,-6.8,-0.3,6.3,5.4,-4.9
C/C(Cn1nnc([N+](=O)[O-])n1)=N\NC(=O)c1cccc(Cl)c1,x,56.9*,4.4,0.0,-0.6,66.9,0.2,18.6
O=C(NCc1ccccc1Cl)c1cccc(OC2CCN(C(=O)C3CC3)CC2)c1,2.0,15.6,-4.0,3.2,0.9,0.9,-0.4,-11.5
CCc1nc(SCC(=O)Nc2ccc(F)cc2)c2c(=O)n(C)c(=O)n(C)c2n1,-0.2,-5.1,3.9,-4.1,0.1,x,-1.1,-2.4
COC(=O)C1=CN(Cc2cccs2)C=C(C(=O)OC)C1c1cccc(Cl)c1,-356.7,22.4,7.3,8.1,1.8,-3.1,-0.4,6.8
CCCC(=O)Nc1ccc(C=C(C(C)=O)C(C)=O)cc1,5.8,4.5,-1.1,2.3,-0.2,3.9,5.3,-6.7
CCCc1nc2oc(C(=O)c3ccccc3)c(N)c2c2c1COC(C)(C)C2,-1.6,12.2,-2.6,3.2,0.6,-4.6,15.0,7.0
COCCN1C(=O)c2oc3cc(C)c(C)cc3c(=O)c2C1c1cccc(O)c1 (stereo unspecified),6.4,24.7,0.7,0.8,0.2,-5.2,-17.0,3.2
CCOC(=O)c1sc(N)c(C#N)c1COC(=O)CNC(=O)c1cc(OC)c(OC)c(OC)c1,-2.5,0.1,1.3,0.4,0.9,-0.6,10.0,-2.0
O=C1CN(c2nnnn2-c2ccccc2)CCN1,0.4,x,x,-11.1,0.1,-5.3,-1.8,x
Cc1ccc(S(=O)(=O)N/N=C\c2ccc([N+](=O)[O-])o2)cc1,x,6.1,10.5,-2.4,0.6,-9.8,-0.1,-5.2
Cc1cnc(NC(=O)Cc2cccs2)s1,-3.3,x,2.2,8.3,0.2,-0.3,-0.3,10.2
O=C(Nc1cccc(Cl)c1)N1CCC(CO)(CCOc2ccccc2)CC1,x,18.0,0.4,1.6,-0.6,-1.0,2.5,-8.1

# Molecules shown so far with two or more sulfur atoms, in the order listed:
SMILES,UCH37 DUB inh,T cruzi inh,RanGTP-Impb inh,LANA-H2B inh,A1 inh,Beta cell apopt,Beta2AR agonist,Calb FLC
COc1ccc(N2CCN(C(=O)CSc3nnc(NC(=O)C4CCC4)s3)CC2)cc1,5.4,-14.3,-0.5,-0.6,0.2,-14.1,-0.6,-6.5
CCOC(=O)c1c(NC(=O)CSc2nnc(-c3c[nH]c4ccccc34)n2C)sc2c1CCCC2,2.5,35.1,25.9*,4.2,0.9,16.8,20.8,-6.8
COc1ccccc1Nc1nnc(SCC(=O)c2c(N)n(C3CC3)c(=O)[nH]c2=O)s1,3.3,x,x,1.2,1.9,3.2,1.4,x
COc1ccccc1/C=C/C(=O)N1CCN(S(=O)(=O)c2cccs2)CC1,-9.2,x,x,3.6,-0.5,5.6,-4.5,x
Cn1c(SCCN2CCOCC2)nc2sc3c(c2c1=O)CCCC3,0.6,0.2,-3.5,1.6,-0.3,-4.2,4.5,u
O=C(CSc1nnc(NC(=O)c2c(F)cccc2F)s1)NC1CC1,4.1,-8.2,4.2,-6.8,-0.3,6.3,5.4,-4.9
Cc1cnc(NC(=O)Cc2cccs2)s1,-3.3,x,2.2,8.3,0.2,-0.3,-0.3,10.2
